Rango dissoc inh = inhibitors of RanGTP-induced Rango-importin beta complex dissociation; O95149+P62826; Biochemical FRET Rango-importin beta, RanGTP-induced dissociation; Potency, µM (doses to about 46.1 µM), inactives show top-dose activity change, negative = inhibition; 340,000 compounds, 0.071% hits; active means falling FRET ratio curve, often poorly fitted, with flat reads before Ran was added; inconclusive means other falling curves, or compound fluorescence or quenching; inactive means flat or rising ratio curve;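 note: potency is the fitted concentration of half-maximal effect; % of control where 0% means no effect; nearly all actives have a fitted effect of over 45% in size; -100% = wells without RanGTP and RCC1; the record marks most hits as doubtful in a second field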
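Rango/importin beta premix (0.1/0.25 uM final), PBS + 1 mM DTT + 0.02% Tween-20 + 0.1% BSA; cpd 5 min RT; FRET pre-read; + RanGTP-RCC1 (0.6 uM Ran, 2 mM GTP, 0.2 uM RCC1); 45 min RT; FRET post-read, ex 430, em 486/530 nm.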
miR-21 reporter = raises the signal of a miR-21 reporter. AID 2288. HeLa miR-21 FLuc reporter, luciferase, 48 h. Potency, µM (top dose mostly 38.3 µM), for inactives: at the highest dose reporter change, positive = more light. 340,000 tested, under 10 active; active = well fitted rising curve with a large enough effect; inconclusive = small, poorly fitted or top-dose-only effect; inactive = no such curve, though single readings can be large or run the other way;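 note: % of control where 0% means no effect; miR-21 action dims this reporter so a rising signal means less miR-21 action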
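HeLa cells stably expressing CMV-driven firefly luciferase with a downstream miR-21 binding sequence, endogenously expressing miR-21, were treated with titrations (up to about 40uM final) for 48 hours at 37 degree Celsius. Luciferase luminescence was read after lysis.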
GLA inh pH 4.5 = inhibitors of human alpha-galactosidase A at pH 4.5 | purified enzyme, 4-MU-alpha-Gal fluorescence, pH 4.5 | AID 1467 | 230,000 tested, under 10 active | activity change, negative = inhibition, % at 105 µM; inconclusive = small, poorly fitted or top-dose-only inhibition, or a rising curve; inactive = flat fitted curve, though single readings scatter; no compound was filed as active;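 note: 0% = full activity with enzyme and -100% = basal without enzyme; dose as in the result columns while the protocol names 77 µM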
Rango-impB inh = inhibitors of Rango-importin beta complex formation. Potency, µM (top dose mostly 92.2 µM), for the others: at the top dose inhibition of complex formation. Rango CFP/YFP FRET sensor + importin beta, 45 min. Q14974. 340,000 compounds, 0.031% hits; active = rising FRET ratio curve, often small or poorly fitted; inconclusive = mostly compound fluorescence or quenching in the first reads; inactive = flat curves in all reads;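 note: potency is the fitted concentration of half-maximal effect; 0% = DMSO wells and 100% = buffer wells lacking importin beta; nearly all actives have a fitted effect of over 15% in size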
Target sequence (Q14974 whole entry, looked up): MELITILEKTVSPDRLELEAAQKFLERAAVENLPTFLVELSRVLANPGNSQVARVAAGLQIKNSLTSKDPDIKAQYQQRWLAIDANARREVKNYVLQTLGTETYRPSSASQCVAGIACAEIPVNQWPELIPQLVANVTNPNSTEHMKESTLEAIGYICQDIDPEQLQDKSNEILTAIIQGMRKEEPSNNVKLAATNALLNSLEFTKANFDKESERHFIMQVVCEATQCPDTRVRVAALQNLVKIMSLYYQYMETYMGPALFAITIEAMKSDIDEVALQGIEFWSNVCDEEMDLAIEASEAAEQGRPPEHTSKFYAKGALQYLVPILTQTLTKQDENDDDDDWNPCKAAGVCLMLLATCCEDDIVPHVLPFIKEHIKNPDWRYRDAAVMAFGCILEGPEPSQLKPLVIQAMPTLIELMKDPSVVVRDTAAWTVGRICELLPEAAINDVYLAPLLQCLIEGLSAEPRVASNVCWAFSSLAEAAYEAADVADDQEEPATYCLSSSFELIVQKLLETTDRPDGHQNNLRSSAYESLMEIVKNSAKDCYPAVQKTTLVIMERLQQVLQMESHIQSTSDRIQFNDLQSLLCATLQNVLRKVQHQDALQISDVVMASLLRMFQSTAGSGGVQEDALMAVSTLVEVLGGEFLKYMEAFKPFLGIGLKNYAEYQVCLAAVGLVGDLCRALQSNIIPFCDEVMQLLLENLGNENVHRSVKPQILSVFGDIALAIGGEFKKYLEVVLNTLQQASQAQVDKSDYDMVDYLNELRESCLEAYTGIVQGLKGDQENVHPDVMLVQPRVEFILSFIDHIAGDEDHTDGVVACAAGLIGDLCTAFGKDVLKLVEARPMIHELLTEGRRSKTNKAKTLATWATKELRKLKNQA
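Inhibition scored from the CFP 486 nm/YFP 530 nm FRET ratio 45 min after adding 0.125 microM importin beta to 50 nM Rango biosensor preincubated 5 min with compound (room temperature, PBS with DTT, Tween-20, BSA). No-importin wells as positive control.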
Starred values were filed as active, the others as inactive; ? = inconclusive; . = no result given. An excerpt; the hit share may differ from the screen's.

SMILES	Rango dissoc inh	miR-21 reporter	GLA inh pH 4.5	Rango-impB inh
CSCCCNC(=S)Nc1ccc(N2CCOCC2)cc1	1.0%	-6.3%	5.5	-0.1%
COC(=O)c1ccc(NC(=O)COc2ccc(S(=O)(=O)N3CCCCC3)cc2)cc1	3.6%	0.1%	3.4	-2.3%
O=C(O)COc1ccccc1/C=N/NC(=O)CSc1nc2ccccc2c(=O)n1-c1ccc(Cl)cc1	0.2%	-5.9%	-6.1	-0.9%
Cc1ccc(C(=O)OCC(=O)NC(C)c2ccccc2)cc1C (stereo unspecified)	-8.1%	.	.	-0.3%
O=C(Nc1cccc(C(F)(F)F)c1)c1cnc2n(c1=O)CCS2	-0.6%	-16.3%	-1.3	3.5%
CCn1c(Cc2ccccc2)nnc1SCC(=O)Nc1ccc(N2CCOCC2)c(Cl)c1	0.2%	-0.3%	-17.8	-1.7%
CCOC(=O)c1nn(-c2ccc(C)cc2)c(=O)cc1OCC(=O)Nc1ccc(OC)cc1	13.6%	.	.	1.9%
CC(C)OC(=O)CSc1nnc2n1C(C)(C)Cc1ccccc1-2	12.6%	-11.8%	7.1	1.7%
CCCc1nnc(NC(=O)C2CCN(C(=O)C3CC(=O)N(c4ccc(C)cc4)C3)CC2)s1 (stereo unspecified)	-1.2%	0.7%	.	-0.9%
CSc1nc2sc3c(c2c(=O)n1CC(C)C)CC(C)(C)OC3	-9.5%	5.1%	-2.2	3.4%
COCCn1c(-c2cc(OC)c(OC)c(OC)c2)nc2nc3ccccc3nc21	.	-4.3%	2.6	.
COc1cc(C)c(COc2ncnc3ccccc23)cc1OC	6.0%	11.9%	.	3.2%
Cc1[nH]n2c(=O)cc(Cc3ccccc3)nc2c1C#N	-3.6%	-4.0%	-11.8	1.4%
COc1cccc(CN=CC2=C(O)CC(C)(C)CC2=O)c1OC	3.4%	-7.5%	3.1	8.6%
CC(C)(CCl)C(=O)Nc1ccc(Sc2ccc(F)cc2)cc1	2.4%	10.5%	-1.1	2.0%

Structures from the list above with a carbonyl joined to an NH by a bond outside any ring, in the order listed:
SMILES	Rango dissoc inh	miR-21 reporter	GLA inh pH 4.5	Rango-impB inh
COC(=O)c1ccc(NC(=O)COc2ccc(S(=O)(=O)N3CCCCC3)cc2)cc1	3.6%	0.1%	3.4	-2.3%
O=C(O)COc1ccccc1/C=N/NC(=O)CSc1nc2ccccc2c(=O)n1-c1ccc(Cl)cc1	0.2%	-5.9%	-6.1	-0.9%
Cc1ccc(C(=O)OCC(=O)NC(C)c2ccccc2)cc1C (stereo unspecified)	-8.1%	.	.	-0.3%
O=C(Nc1cccc(C(F)(F)F)c1)c1cnc2n(c1=O)CCS2	-0.6%	-16.3%	-1.3	3.5%
CCn1c(Cc2ccccc2)nnc1SCC(=O)Nc1ccc(N2CCOCC2)c(Cl)c1	0.2%	-0.3%	-17.8	-1.7%
CCOC(=O)c1nn(-c2ccc(C)cc2)c(=O)cc1OCC(=O)Nc1ccc(OC)cc1	13.6%	.	.	1.9%
CCCc1nnc(NC(=O)C2CCN(C(=O)C3CC(=O)N(c4ccc(C)cc4)C3)CC2)s1 (stereo unspecified)	-1.2%	0.7%	.	-0.9%
CC(C)(CCl)C(=O)Nc1ccc(Sc2ccc(F)cc2)cc1	2.4%	10.5%	-1.1	2.0%

(cont.)
SMILES	Rango dissoc inh	miR-21 reporter	GLA inh pH 4.5	Rango-impB inh
COc1ccccc1N(Cc1ccccc1)S(=O)(=O)c1cccc(C(=O)O)c1	11.1%	-5.9%	2.8	-4.5%
COc1ccc(NC(=S)NCc2cccnc2)cc1OC	-4.1%	0.4%	-16.7	-1.6%
O=C1c2cc([N+](=O)[O-])ccc2-c2cc(Br)c(N=C(NO)C(F)(F)F)cc21	2.6%	.	.	17.6%
COc1ccc(C)cc1NC(=O)C(c1ccccc1)N1CCN(CC(=O)N2CCCC2)CC1 (stereo unspecified)	-1.3%	.	.	0.3%
CC(CCc1ccccc1)NC(=O)CCC(=O)N1CCC(C(N)=O)CC1 (stereo unspecified)	-10.9%	0.3%	.	?
CCOc1cc(C2NN=C(c3ccc(C)cc3)S2)ccc1O (stereo unspecified)	?	-61.8%	1.9	?
O=C(NCCO)C(=O)Nc1cc2c3c(c1)CCC(=O)N3CCC2	-24.8%	5.8%	.	-3.7%
CCOC(=O)c1cnn(-c2ccccc2)c1-n1cccc1C(=O)C(=O)Nc1ccccc1C(F)(F)F	10.6%	-0.6%	-20.7	-1.3%
CCCC(C)C(=O)N(Cc1ccccc1)c1ccccn1 (stereo unspecified)	-7.1%	-3.2%	-0.2	-1.3%
CC(=O)Nc1cccc(NC(=O)COc2ccc3c(c2)OCO3)c1	4.1%	-16.4%	.	7.8%
O=C(Nc1ccc2c(c1)N(Cc1ccccc1)C(=O)c1ccccc1S2)NC1CC1	-9.0%	2.3%	-14.1	0.4%
COc1ccc(-c2nnc(SCCC(=O)O)n2C)cc1OC	12.9%	-1.9%	-1.3	-0.3%
COC(CNC(=O)Cn1ncc2ccsc2c1=O)OC	8.2%	-0.6%	11.4	3.2%
CCOC(=O)C1=C(C)N(C)C(=O)C1CC(=O)O (stereo unspecified)	20.1%	3.1%	-18.7	0.6%
CN(C)c1ccc(/C=N/NC(=O)c2ccc(-n3cnnn3)cc2)cc1	-2.9%	.	.	-0.7%
O=C(CN1CCC(C(=O)c2ccc3c(c2)OCCO3)CC1)NC1CCCC1	2.9%	-9.7%	0.7	-0.4%
O=C(CSc1nc2ccccc2o1)NC(=O)NCc1ccco1	0.0%	-1.1%	-4.0	-0.8%
Cc1nc(NN)nc(NCc2ccccc2)n1	2.2%	-6.8%	.	-1.3%
O=C(COC(=O)c1cc(S(=O)(=O)N2CCCCC2)ccc1N1CCOCC1)c1ccc(Cl)cc1	?	.	.	-2.3%
CC(C)(C)c1ccc(OCCC(=O)OCC(=O)Nc2ccc(N3CCOCC3)cc2)cc1	0.0%	.	.	-0.4%
NC(=O)c1nn(CC(=O)Nc2cccc(S(=O)(=O)N3CCCC3)c2)c(=O)c2ccccc12	0.1%	.	.	-1.8%
COc1ccc(OC)c(C(=O)COC(=O)c2ccccc2O)c1	-8.1%	-42.5%	-6.8	5.2%
O=C(CN1CCN(Cc2ccccc2)CC1)N/N=C\C=C/c1ccco1	-1.7%	-6.7%	-7.1	4.9%
COC(=O)c1c(NC(=O)COC(=O)c2ccc(O)cc2)sc2c1CCCCC2	-10.7%	-4.0%	-18.1	-0.7%
CC1CCN(CCNC(=O)c2ccc(NC(=O)C3CCCO3)cc2)CC1 (stereo unspecified)	-10.9%	-8.3%	6.9	0.6%
COCCCNC(=O)C(=O)Nc1cc2c3c(c1)CCN3C(=O)CC2	11.3%	4.6%	.	2.7%
O=C(C[n+]1cc(-c2ccc(Cl)c(Cl)c2)n2c1CCC2)N1c2ccccc2Sc2ccccc21	1.7%	15.7%	-7.3	0.4%
COCCNC(=O)/C(C#N)=C/c1cccc(NC(=O)c2ccccc2Cl)c1	-6.9%	-25.5%	-4.9	1.5%
CC(=O)Nc1ccc2c(c1)C(=O)c1ccccc1C2=O	-19.7%	-58.2%	-1.2	1.5%
CNC(=O)OC(C)CNS(=O)(=O)c1ccc(C)cc1 (stereo unspecified)	1.2%	-1.3%	4.2	-0.7%
CC[n+]1c(/C=C/c2ccc(OC)c(OC)c2)ccc2ccccc21	0.8%	-35.0%	.	17.3%
CC(=O)Oc1ccc(C(=O)O)c(OC(C)=O)c1	2.7%	3.8%	-7.8	1.5%
CCC(C)NC(=O)NCc1ccccc1F (stereo unspecified)	22.6%	2.7%	4.4	-1.6%
c1ccc(CSc2nnnn2-c2cccc3ccccc23)nc1	-29.0%	-8.9%	-6.4	-0.8%
O=C(CCC(=O)Nc1ccccc1Cl)NNC(=O)c1ccccc1[N+](=O)[O-]	-0.2%	-1.2%	2.4	0.0%
O=C(CCOc1ccccc1)Nc1ccnn1C1CCN(Cc2ccc(CO)o2)CC1	2.5%	-0.2%	.	0.5%
c1ccc(-n2cc(CN3CCCC3)c(-c3ccc4c(c3)OCO4)n2)cc1	-0.9%	-20.3%	-5.7	3.5%
COc1ccc(/C=C/C(=O)NCC(c2ccc(F)cc2)N2CCOCC2)cc1OC (stereo unspecified)	-5.3%	2.0%	4.6	0.2%
CCCCn1nnnc1NCc1ccc(OC)c(OC)c1	-12.9%	3.1%	-2.4	8.8%
COc1ccccc1NC(=O)C(C)Sc1nc(-c2ccccc2)cn1N (stereo unspecified)	-0.2%	.	.	?
O=C(O)CCc1ccc(-c2cccs2)o1	-8.6%	-3.0%	2.2	?
OCC1(CCOc2ccccc2)CCN(Cc2ccc(OC(F)F)cc2)CC1	11.9%	11.3%	.	4.7%
CN(C)S(=O)(=O)c1cc(NC(=O)CN2CCN(c3ccc(O)cc3)CC2)ccc1Cl	7.8%	15.6%	5.3	2.4%
C=CCN(CC=C)C(=O)CN1C(=O)c2ccccc2C1=O	-13.2%	-11.9%	3.9	-3.9%
COc1ccc(S(=O)(=O)N2CCN(C(=O)C3CCCCC3)CC2)cc1	0.0%	-0.5%	.	-3.4%
COCCNc1ccc(-c2nn(C)c(=O)c3ccccc23)cc1[N+](=O)[O-]	-10.3%	-0.1%	-6.5	2.3%
CSc1ccc(CNCCN2CCOCC2)cc1	1.8%	-0.7%	6.9	0.1%
Cc1ccc(C2=NN(C(=O)CSc3nnnn3C)C(c3ccco3)C2)cc1 (stereo unspecified)	-7.8%	.	.	-0.3%
O=C(N/N=C/c1ccccc1O)C(=O)Nc1ccccn1	-1.5%	-17.6%	2.2	?
Cn1cc(/C=C(\C(=O)O)C(C(=O)O)=C2CCCCC2)c2ccccc21	3.5%	-1.2%	-13.2	1.1%
COc1ccc([N+](=O)[O-])cc1NC(=O)CSCc1ccccc1	5.1%	0.7%	-9.1	4.6%
CCCNC(=S)N1CCC(NC(=O)C23CC4CC(CC(C4)C2)C3)CC1	1.7%	-4.5%	0.8	-0.5%
COc1cccc(N2C(=O)C(c3ccccc3)=C(c3nc4ccccc4s3)C2NC(C)=O)c1 (stereo unspecified)	-14.4%	-5.3%	-4.8	?
Cc1ccccc1OCc1csc(N)n1	30.2%	-14.0%	7.4	6.1%
COc1cccc(CN2CC(C(=O)NCCN3CCOC3=O)CCC2=O)c1 (stereo unspecified)	-3.0%	-0.6%	.	-0.6%
Cc1cccc(C)c1NC(=O)CSc1nnc(NC(=O)CN2CCOCC2)s1	6.4%	-2.8%	9.8	0.2%
CC(=N/O)/C(C)=N\NC(=O)c1ccccn1	-5.6%	-17.2%	-0.4	2.0%
CC(C)NC(=O)c1cccc(NC(=O)CC2SC(N3CCCCC3)=NC2=O)c1 (stereo unspecified)	-8.4%	.	.	-0.3%
Cc1ccc(C(=O)COC(=O)CCc2ccc(S(=O)(=O)N3CCCCC3)cc2)cc1	-0.9%	-2.0%	0.0	-0.6%
CCOC(=O)C1(Cc2ccccc2C(F)(F)F)CCN(C2CCCC2)CC1	7.1%	0.0%	7.7	2.4%
Other records follow.
SMILES	Rango dissoc inh	miR-21 reporter	GLA inh pH 4.5	Rango-impB inh
CC[C@@H]1C=C(C(=O)O)[C@H](c2cccc(C)c2)N1S(=O)(=O)c1ccc(C)cc1	1.6%	.	.	0.0%
COc1ccc(CCNC(=O)C(NS(=O)(=O)c2cccc3nsnc23)C(C)C)cc1OC (stereo unspecified)	-4.2%	-1.1%	.	-0.7%
CCc1nnc(N/N=C/c2ccc(O)c(OC)c2)n1N	-19.9%	-31.2%	.	3.7%
O=C(Nc1ccc(Cl)cn1)Nc1cccs1	-11.8%	-31.0%	-5.3	2.7%
O=C(CSc1nc(-c2ccc(F)cc2)cc(C(F)(F)F)n1)NCCN1CCOCC1	1.8%	0.2%	-1.5	0.1%
O=C(CSc1nc(C(F)(F)F)cc(=O)[nH]1)Nc1nccs1	8.3%	.	.	7.7%
O=C(CCCc1nc(-c2ccccc2)no1)N1CCOCC1	2.2%	-15.3%	-3.3	-0.1%
Cc1ccccc1-c1n[nH]c(=S)n1/N=C/c1ccc(-c2ccccc2Br)o1	-11.6%	26.6%	2.9	-2.0%
CCCOc1ccc2c(C)c(CC(=O)OC)c(=O)oc2c1	0.0%	-30.6%	-3.3	-0.7%
CN1c2ccccc2C(C)(C)C12CCCC(=O)N2 (stereo unspecified)	14.6%	0.2%	7.1	?
